HSD17B inhib: qHTS Assay for Inhibitors of HSD17B4, hydroxysteroid (17-beta) dehydrogenase 4. 3-hydroxyacyl-CoA dehydrogenase type-2 (Homo sapiens), Q99714. recombinant HSD17B10, NADH fluorescence kinetic; many of its hits are not listed in these tables. Potency, µM (titrated, usually from 57.1 µM), inactives show at the highest dose activity change, negative = inhibition, usual class: inhibitors. 7.6% of 75,000 active. AID 893, 2007; active means well fitted inhibition curve with a large enough effect; inconclusive means small, poorly fitted or top-dose-only effect; inactive means no such curve, though single readings can be large or run the other way;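 further: the protocol describes HADH2 (HSD17B10) and not the HSD17B4 of the title; nearly all actives have a fitted effect of over 70% in size; most hits overshoot -100% by far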
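Enzyme plus compound, 15 min room temperature; substrate mix added (NAD+ 1 mM, beta-hydroxybutyryl-CoA 90 uM final); plates read kinetically for NADH fluorescence. HADH2 was His-tagged, E. coli-derived, 20 nM.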
An asterisk follows results filed as active; ? = inconclusive; [ ] = remark or other dose. On the % scale 0 is the no-effect control and ±100 the full control effect; potency means the concentration at half of the fitted maximal effect.

SMILES	HSD17B inhib
O=C(CSc1nc2[nH]ncc2c(=O)n1-c1ccccc1)N1CCCc2ccccc21	?
CC(NC(=O)Cn1cc2c(n1)CCCCC2)c1ccccc1 (stereo not drawn)	6.0%
COc1ccc(-c2cc(C(=O)NC3CCCC3)no2)cc1OC	8.9%
O=C(O)c1c(-c2ccccc2)c2oc3ccccc3c2[nH]c1=O	31.6µM*
CC(C)(Oc1ccc(Cl)cc1)C(=O)Nc1ncccn1	1.9%
c1ccc(CCCNc2nnnc3ccccc23)cc1	7.2%[11.4 µM]
CCC(=O)Nc1nc2cc(OC)ccc2s1	10.2%
CC(=O)NC(CCS(C)(=O)=O)C(=O)Nc1cccc(C)c1C (stereo not drawn)	-2.6%
COCC(=O)N1CCC2(CCCN(C(=O)Nc3cccc(C#N)c3)C2)CC1	-2.6%
CN(Cc1ccco1)c1cc(-c2cccnc2)ncn1	?
CC(=O)c1cccc(N=C2C(=O)Nc3ccccc32)c1	-27.7%
Cn1c(C(=O)N2CCCC(C(=O)NCCCc3ccccc3)C2)cc2sccc21 (stereo not drawn)	-2.3%
COc1ccccc1C(=O)Nc1ccc(C(=O)O)cc1	7.9%
COc1ccc(CCNC(=O)CCn2c(=O)oc3ccccc32)cc1OC	5.9%
Cc1cccc(C)c1NC(=O)CS(=O)CC(=O)NC1CCCc2ccccc21 (stereo not drawn)	-4.2%
C(=N\n1cnnc1)/c1ccc2ncccc2c1	6.2%
O=C(Nc1ccc2c(c1)OCO2)c1c(Cl)nc2sccn12	?
CCN1C=C(Cc2cccs2)C2=C(C1)C(c1cccs1)C(C#N)=C(N)O2 (stereo not drawn)	15.8µM*
C[C@H](C[C@H](N)C(=O)O)C(=O)O	-1.8%
Cc1ccc(N2CCN(c3ccc(C)cc3)C(CC(=O)O)C2=O)cc1 (stereo not drawn)	-2.0%
Fc1cc(F)c2nc(N3CCOCC3)sc2c1	-0.6%
CCC1=C(OC(=O)N(CC)CC)N2C(=O)OC(=NCC(=O)OC)[C@]2(C)[C@H]2C1=CC[C@H]1C(=O)N(CC(=O)OC)C(=O)[C@H]12	4.9%
Cc1nn(-c2ccccc2)c(C)c1CCC(=O)O	7.6%
COc1ccc(-c2nc(C#N)c(N3CCOCC3)o2)cc1OC	31.6µM*
CCOC(=O)c1ccc(NC(=O)CCc2nc(-c3ccccc3Cl)no2)cc1	-2.9%

Next section:
SMILES	HSD17B inhib
c1ccc(Cc2nnc(-c3ccccc3)o2)cc1	12.5%
CC(=O)Nc1sc(NC(=O)c2ccccc2)nc1-c1cccs1	-2.7%
CC(=O)c1cccc(N(CC(=O)Nc2cccnc2)S(C)(=O)=O)c1	-2.1%
FC(F)(F)c1ccccc1-c1ccc2ncnc(N3CCOCC3)c2c1	?
CCOC(=O)c1cc2c(n(-c3ccccc3)c1=O)CC(C)(C)CC2=O	31.6µM*
Cc1ccc(C(=O)N(CN2CCCC2=O)c2ccccc2)cc1C	-6.8%
CC(C)(CN=C1NS(=O)(=O)c2ccccc21)CNC(=O)CN1C(=O)c2ccccc2C1=O	7.6%
Cc1ccccc1-n1c(=O)cc(N2CCN(C(=O)c3ccco3)CC2)[nH]c1=O	?
O=C(CS(=O)(=O)c1cn(Cc2ccccc2Cl)c2ccccc12)N1CCOCC1	16.4%
CCOC(=O)C1CCN(CC(O)COc2ccc(C(C)=O)cc2)CC1 (stereo not drawn)	2.5%
CCOC(=O)CN1C(=O)C(O)(c2c(C)[nH]c3ccccc23)c2ccccc21 (stereo not drawn)	1.6%
COc1ccc(/C(N)=C/C(=O)C(C)(C)C)cc1	-5.7%
O=C(CCCC(=O)N(CC(=O)NC1CCCC1)Cc1ccccc1Cl)Nc1ccccn1	1.6%
O=c1[nH]c2cc3c(cc2cc1CN(CC1CCCO1)S(=O)(=O)c1ccc(Cl)cc1)OCCO3 (stereo not drawn)	12.6µM*
CC(=O)Nc1cccc2c1C(=O)NC2=O	31.6µM*
CCOC(=O)N1CCC(N2CC34C=CC(O3)C(C(=O)O)C4C2=O)CC1 (stereo not drawn)	3.0%
Cn1cccc1C(=O)N1CCC2(CC1)CN(c1ccncc1)C2	5.6%
CCOC(=O)c1cnn(CCOC(=O)c2cccs2)c1NC(=O)c1cccs1	8.7%
C=CCSc1ncccc1C(=O)O	3.1%
N=C(N)SCc1ccc(Cl)cc1Cl (tested in a mixture with another compound)	1.3%[11.4 µM]
CCCCN=C(C)c1c(O)c2ccccc2oc1=O	-2.4%
COc1ccc(CCN2C(=O)CC(Sc3ncccc3C(=O)O)C2=O)cc1OC (stereo not drawn)	-5.1%
O=C1c2ccccc2C(=O)N1CC1c2ccccc2CCN1S(=O)(=O)c1cnc[nH]1 (stereo not drawn)	-7.4%
Cc1nc(NC2=NCN(CCc3ccccc3)CN2)nc2c(C)cccc12	9.3%
CCc1nn2c(N3CCOCC3)cc(C)nc2c1-c1ccc(F)cc1	?

More structures:
SMILES	HSD17B inhib
O=C(CN1CCN(Cc2ccccc2Cl)C1=O)N1CCCCCC1	5.4%
N#Cc1cccc(C(c2nnnn2Cc2ccccc2)N2CCCC2)c1 (stereo not drawn)	-1.7%
COc1ccc(OC)c(N(CC(=O)N2CCCC2)S(=O)(=O)c2ccc(OC)c(OC)c2)c1	1.5%
Cc1ccc(NC(=O)CCC(=O)O)cc1F	-12.9%
O=C(Cc1ccccc1)Nc1cccc(-c2nc3ncccc3o2)c1	25.1µM*
COc1ccccc1N1CSC2=C(C#N)C(c3ccc(SC)cc3)CC(=O)N2C1 (stereo not drawn)	20µM*
C=CCNC(=O)c1ccc2c(c1)nnn2C	-3.6%
Cc1ccc(S(=O)(=O)Nc2cc(C(=O)NCCN3CCCC3)ccc2N2CCCCC2)cc1	-12.2%
CCOc1ccccc1N1CCN(C(=O)c2c(C)noc2C)CC1	-0.9%
O=C1c2cccc3c(N4CCCCC4)ccc(c23)C(=O)N1c1ccccn1	2.8%
CCCc1cc(C(=O)Nc2cc(Br)ccc2O)no1	-28.9%
CCO/C=C1/C(=O)N(CC)c2ccccc21	-13.3%
CC(=O)NCC(=O)OCC(=O)c1ccc(C)c(C)c1	-7.5%
O=C(NCC1CCCO1)C1CCC(=O)N1Cc1ccccc1Cl (stereo not drawn)	-2.0%
Cc1cccc(CNc2ncnc3[nH]ncc23)c1	3.7%[11.4 µM]
CC(C)N(c1ccccc1)c1ccc(NC(=O)C2CCCO2)cc1 (stereo not drawn)	-7.4%
COc1ccc(OC)c(S(=O)(=O)N2CCC(C(=O)Nc3ccc(C)c(C)c3)CC2)c1	-7.0%
COc1cc(CC(NC(C)=O)C(=O)NC2CCN(c3nc(C)cc(C)c3C#N)CC2)cc(OC)c1 (stereo not drawn)	?
O=C(c1ccco1)N1CCC2(CCCN(c3cccc(-c4ccccc4)c3)C2)CC1	-19.1%
CS(=O)(=O)N1CCC2(CCCN(C(=O)Nc3cccc(F)c3)C2)CC1	2.6%
O=C(NCc1ccco1)c1ccc(N2CCCC2=O)cc1	-1.3%
CN(CC(=O)Nc1ccc(F)c(F)c1)S(=O)(=O)c1cccc2nsnc12	1.1%
C=CCn1c(SCC(=O)/C(C#N)=C(\C)N)nc2sc(CC)cc2c1=O	0.2%
COc1nc(-c2ccccc2)ccc1-c1noc(COc2ccccc2)n1	31.6µM*
O=C(CCn1nnc(-c2cccs2)n1)NCc1ccccc1Cl	-1.0%

Next part
SMILES	HSD17B inhib
Nc1nc(CN2CCN(c3ccccc3)CC2)nc(N2CCCc3ccccc32)n1	0.7%
CN1CCN(c2ccccc2NS(=O)(=O)c2ccc3c(c2)CCN3C(=O)C2CCC2)CC1	15.0%
Cc1ccc(CNC(=O)CN2C(=O)C3(OCCCO3)c3ccccc32)cc1	-1.1%
COc1cccc(NC(=O)CSc2nnc(-c3cccc(OC(C)C)c3)n2N)c1	-13.7%
O=C(CN(Cc1cccs1)C(=O)CNS(=O)(=O)c1ccc(F)cc1)NCc1ccco1	-4.1%
CCOC(=O)N1CCN(C(=O)c2ccc3nc(N4CCCCC4)sc3c2)CC1	?
CCCCn1nnnc1NCc1cccs1	-5.6%
O=C1CC(c2ccc(S(=O)(=O)NCc3ccccc3)cc2)CN1 (stereo not drawn)	14.0%

Compounds from the list above containing an aryl methoxy group, in the order listed:
SMILES	HSD17B inhib
COc1ccc(-c2cc(C(=O)NC3CCCC3)no2)cc1OC	8.9%
CCC(=O)Nc1nc2cc(OC)ccc2s1	10.2%
COc1ccccc1C(=O)Nc1ccc(C(=O)O)cc1	7.9%
COc1ccc(CCNC(=O)CCn2c(=O)oc3ccccc32)cc1OC	5.9%
COc1ccc(-c2nc(C#N)c(N3CCOCC3)o2)cc1OC	31.6µM*
COc1ccc(/C(N)=C/C(=O)C(C)(C)C)cc1	-5.7%
COc1ccc(CCN2C(=O)CC(Sc3ncccc3C(=O)O)C2=O)cc1OC (stereo not drawn)	-5.1%
COc1ccc(OC)c(N(CC(=O)N2CCCC2)S(=O)(=O)c2ccc(OC)c(OC)c2)c1	1.5%
COc1ccccc1N1CSC2=C(C#N)C(c3ccc(SC)cc3)CC(=O)N2C1 (stereo not drawn)	20µM*
COc1ccc(OC)c(S(=O)(=O)N2CCC(C(=O)Nc3ccc(C)c(C)c3)CC2)c1	-7.0%
COc1cc(CC(NC(C)=O)C(=O)NC2CCN(c3nc(C)cc(C)c3C#N)CC2)cc(OC)c1 (stereo not drawn)	?
COc1nc(-c2ccccc2)ccc1-c1noc(COc2ccccc2)n1	31.6µM*
COc1cccc(NC(=O)CSc2nnc(-c3cccc(OC(C)C)c3)n2N)c1	-13.7%

Single entries from above.
HSD17B inhib with Cc1cccc(CNc2ncnc3[nH]ncc23)c1 = 3.7%[11.4 µM]
HSD17B inhib with Cc1ccc(C(=O)N(CN2CCCC2=O)c2ccccc2)cc1C = -6.8%

High-throughput results from PubChem.

This is a subset. The share of hits here may be higher or lower than overall.
